Screening results deposited in PubChem by several laboratories.
MT1-MMP act inh – blockers of MT1-MMP proenzyme processing, primary screen, HT1080 RFP-PRO-GFP cells, GFP/RFP fluorescence; actives 0.061% (n = 360,000); GFP/RFP ratio change, % at 20 µM; GFP/RFP ratio fluorescence, overnight; percent of plate control window, DMSO zero; Matrix metalloproteinase-14 (Homo sapiens), P50281;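 active = GFP/RFP ratio change of at least 30% with cell ATP level not reduced by more than half and red fluorescence within 50% of control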; note: strong numbers were not always called active
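Assay system: HT1080 cells carrying an RFP-PRO-GFP reporter | Dosing: Single dose of 20 µM compound, 1% DMSO final | Incubation: Cells overnight before dosing, compound overnight, 37 °C, 5% CO2 | Evaluation: GFP/RFP fluorescence ratio | Control set: DMSO and RFP-L50D-GFP cell wells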
eIF4H inh – human eIF4H binding inhibitors, primary screen, translation initiation inhibitor project, biochemical, uHTS, fluorescence polarization; eIF4H fluorescence polarization binding assay; inhibition, % at 35 µM; actives 0.94% (n = 290,000); Eukaryotic translation initiation factor 4H (Homo sapiens), Q15056;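 active = 50% or more with normal probe brightness, or confirmed in later tests; about a fifth of its hits are not listed in these tables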;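 note: calls also rest on retests at 20 µM and on dose response follow-up; 0% = protein and probe with vehicle and 100% = probe without protein; strong numbers were not always called active; many hits fall short of the cut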
HIV Env fusion – inhibitors of HIV-1 Env-driven cell-cell fusion, primary screen, HeLa-JRFL effector, CEM21 target cells, luciferase. inhibition, % at 12.3 µM. actives 1.1% (n = 360,000). AID 651610, 2012;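 active = mean replicate inhibition score of at least 50 and every replicate individually at or above 50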;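 note: 0% = plate neutral controls and 100% = maraviroc near 300 nM; one replicate is shown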
Yeast UUG start – modulators of yeast start codon fidelity, primary screen, whole organism, S. cerevisiae, single point, plate reader. S. cerevisiae UUG-firefly luciferase reporter, luminescence/redox ratio. activity score, % at 18.7 µM. actives 0.13% (n = 350,000). AID 602363, 2012;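 active = replicate mean at a twofold rise or more, about +100% in these data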;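 note: firefly luciferase made from a UUG start codon reports start codon fidelity; reporter light over untreated wells divided by growth signal over untreated wells; some hits fall short of that in this replicate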
PABP polyA inh – PABP poly(A) RNA binding inhibitors, primary screen, biochemical, fluorescence polarization, uHTS | actives 1% (n = 290,000) | inhibition, % at 35 µM | AID 2014, 2009;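 active = 50% or more with normal probe brightness, or confirmed in later tests; about a fifth of its hits are not listed in these tables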;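 note: calls also rest on retests at 20 µM and on dose response follow-up; controls were probe without protein and protein plus probe with vehicle; some compounds called inactive have numbers as strong as hits; many hits fall short of the cut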
Target sequence (P11940 whole entry, looked up): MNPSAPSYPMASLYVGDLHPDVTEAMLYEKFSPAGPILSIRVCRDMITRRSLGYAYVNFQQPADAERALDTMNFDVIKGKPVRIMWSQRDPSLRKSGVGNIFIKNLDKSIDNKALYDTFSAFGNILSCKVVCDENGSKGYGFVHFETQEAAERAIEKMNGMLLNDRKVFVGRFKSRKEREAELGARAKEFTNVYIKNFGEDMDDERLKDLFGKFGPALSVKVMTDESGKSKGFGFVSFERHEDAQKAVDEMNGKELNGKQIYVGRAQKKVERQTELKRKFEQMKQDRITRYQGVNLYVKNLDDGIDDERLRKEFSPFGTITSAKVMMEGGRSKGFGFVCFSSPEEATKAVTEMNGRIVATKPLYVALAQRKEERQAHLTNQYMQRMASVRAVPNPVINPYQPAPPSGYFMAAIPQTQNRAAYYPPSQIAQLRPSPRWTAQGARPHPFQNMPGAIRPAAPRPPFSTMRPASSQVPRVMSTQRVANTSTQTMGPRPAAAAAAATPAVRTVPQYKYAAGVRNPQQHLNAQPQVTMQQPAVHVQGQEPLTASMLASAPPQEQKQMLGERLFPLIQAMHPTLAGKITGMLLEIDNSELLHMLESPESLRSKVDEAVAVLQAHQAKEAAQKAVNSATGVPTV
CSC inhib – cancer stem cell viability inhibitors, primary screen, luminescence; cancer stem cell-like cells viability; inhibition, % at 7.5 µM; actives 1.1% (n = 300,000);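 active = mean at 75% or more and at least half the replicates too; tested in HMLE shEcad cells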;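 note: 0% = median of negative and 100% = median of positive control wells; the first replicate is given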
Rce1 inhib – yeast Rce1p protease inhibitors, primary screen, biochemical, fluorescence, cell-free homogeneous. calls only. yeast membranes, quenched prenylated peptide cleavage fluorescence. actives 0.27% (n = 290,000). CAAX prenyl protease 2 (Saccharomyces cerevisiae (strain ATCC 204508 / S288c)), Q03530. AID 2563, 2010;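 active = fall in fluorescence gain of 50% or more versus controls, with final raw signal at or below 3038400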;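 note: plate controls were neutral control wells for no effect and wells lacking membranes for full effect; tested at 10 µM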
Target sequence (Q03530 whole entry, looked up): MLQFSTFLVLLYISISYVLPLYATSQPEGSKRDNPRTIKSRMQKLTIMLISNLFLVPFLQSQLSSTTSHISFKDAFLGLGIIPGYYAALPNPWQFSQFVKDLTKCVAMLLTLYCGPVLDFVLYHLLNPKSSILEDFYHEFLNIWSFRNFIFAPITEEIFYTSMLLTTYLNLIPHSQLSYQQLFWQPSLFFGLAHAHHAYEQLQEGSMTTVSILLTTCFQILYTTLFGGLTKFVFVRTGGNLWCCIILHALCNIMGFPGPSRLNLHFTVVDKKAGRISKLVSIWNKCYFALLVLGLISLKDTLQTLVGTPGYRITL
MT1-MMP act inh RFP – also measured in MT1-MMP act inh; calls as there; RFP signal change, %; measured here: RFP expression control read;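 0 = vehicle wells; hits needed this value within 50% of zero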
Active calls of the source: *; i = inactive; · = not tested or not shown.

SMILES | MT1-MMP act inh | MT1-MMP act inh RFP | eIF4H inh | HIV Env fusion | Yeast UUG start | PABP polyA inh | CSC inhib | Rce1 inhib
CCN1CCN(S(=O)(=O)c2ccc3c(c2)NC(=O)CS3)CC1 | -1.3 | 1.8 | -1.5 | 1.1 | -21.9 | 12.6 | -4.9 | i
COc1cc(OC)cc(C(=O)N[C@H](C(=O)Nc2nc(-c3cc(OC)ccc3OC)cs2)C(C)C)c1 | -52.9 | -41.0 | -7.6 | -8.8 | · | -7.3 | 0.0 | i
O=C(Nc1nc2ccc(F)cc2s1)c1ccccn1 | · | · | 13.3 | 40.2 | · | 1.6 | -6.3 | i
CN(C)S(=O)(=O)c1ccc(N2CCCC2)c(C(=O)Nc2nc(-c3ccc(F)c(F)c3)cs2)c1 | -1.1 | 1.4 | -9.2 | -5.2 | · | -3.0 | -1.3 | i
Cc1c(O)c2ccccc2oc1=O | 6.0 | 5.6 | -2.3 | 7.4 | · | -1.1 | -14.6 | i
CS(=O)(=O)c1ccc2nc(NC(=O)C3CCCCC3)sc2c1 | -8.3 | -1.4 | 3.0 | -1.0 | -13.3 | -3.8 | 11.3 | i
CCOC(=O)CN1C(=O)C(=O)N(Cc2c(Cl)cccc2Cl)C1=O | -1.3 | 0.1 | 1.0 | -3.9 | 2.6 | 4.8 | -13.2 | i
CCC(C)[C@H](NC(=O)NCc1ccc(S(N)(=O)=O)cc1)C(=O)O (stereo partly specified) | 2.8 | -1.8 | -1.7 | 4.0 | -18.1 | -1.4 | 9.4 | i
CCSc1nnc(NC(=O)C2CCCCC2C(=O)O)s1 (stereo unspecified) | -1.4 | -0.3 | -7.4 | · | · | 16.6 | 0.1 | i
CC1CCC(C(C)C)C(OC(=O)Cn2nnc3c(cnn3-c3ccccc3)c2=O)C1 (stereo unspecified) | -3.6 | -5.2 | 7.6 | 1.8 | -16.4 | 0.7 | 17.3 | i
Cc1ccc(N/C(N)=N/c2nc(CSc3ccc(C)cc3)cc(=O)[nH]2)cc1 | 0.8 | -5.9 | -11.6 | -73.2 | -12.1 | 6.0 | · | ·
CCN(CC)C(=O)CSc1nnc(CNc2ccc(F)cc2)n1-c1ccccc1 | 6.1 | 1.8 | -13.3 | · | -17.0 | -13.3 | 12.5 | ·
O=C(CN1CCCC1)N1CCN(c2ccccc2)CC1 | -1.4 | 2.4 | -11.2 | 9.5 | -5.6 | 0.4 | 1.3 | i
O=C(CCN1C(=O)C2C3C=CC(C3)C2C1=O)Nc1c(F)cccc1F (stereo unspecified) | -3.8 | 0.4 | -0.9 | · | -3.1 | -1.5 | -3.3 | i
Cc1ccc(S(=O)(=O)CCC(=O)Nc2nc(-c3ccccn3)cs2)cc1 | 1.4 | -3.0 | · | 0.5 | -29.0 | · | 26.8 | ·
CCCNc1nc(C)cc(-c2cc(C(=O)Nc3ccccc3)on2)n1 | 0.0 | 0.5 | · | -6.3 | -11.1 | · | -7.9 | i
c1coc(CNC2CCCCCCC2)c1 | 0.2 | 2.1 | -4.9 | -37.9 | -15.9 | 14.5 | -11.7 | i
COc1ccc(CN2CCN(Cc3ccc(C)cc3)C(CCO)C2)cc1OC (stereo unspecified) | -0.7 | -6.0 | 7.0 | 0.7 | · | 3.4 | -2.5 | i
COc1ccc(N(CC(=O)NCCc2ccccc2)C(=O)CCC(=O)Nc2nccs2)c(OC)c1 | -2.1 | 0.6 | 1.5 | 9.7 | -13.4 | 2.3 | -9.5 | i
COc1ccc(CN(C)S(=O)(=O)c2nnc(NC(=O)c3cccc(F)c3)s2)cc1OC | -1.7 | -0.6 | -2.1 | -6.1 | -19.1 | -4.2 | 18.5 | i
O=C(c1ccc(CS(=O)Cc2ccc(Cl)cc2)o1)N1CCN(C2CCCCC2)CC1 (stereo unspecified) | 2.1 | 5.6 | · | 29.6 | -16.3 | · | · | ·
O=C1[C@H]2[C@H](ON3CCCC[C@H]23)C(=O)N1c1ccc(Cl)cc1 | 1.4 | 2.7 | 0.6 | -14.9 | · | 5.4 | -4.6 | i
COc1ccc(-c2c3c([nH]c(=S)c2C#N)CCC3)cc1 | -4.5 | 3.2 | 5.4 | -41.9 | -7.5 | 16.2 | · | ·
O=C(CC1NC2CCCCC2NC1=O)Nc1ccc2c(c1)OCO2 (stereo unspecified) | 1.4 | 6.0 | 1.1 | -21.1 | -23.7 | -1.5 | -2.9 | i
O=C(Cc1cccs1)Nc1cc(S(=O)(=O)N2CCCCC2)ccc1Cl | 10.8 | -6.1 | · | 4.6 | -10.3 | · | · | ·
CCOC(=O)C1(CCSC)NC(c2ccco2)C2C(=O)N(CC)C(=O)C21 (stereo unspecified) | -2.6 | 1.5 | 1.0 | 6.3 | -1.0 | 6.2 | · | i
CCC(=O)NC(=S)Nc1ccccc1C(=O)OC | 0.3 | -1.1 | -4.4 | · | -7.1 | -13.2 | -13.2 | i
COc1ccc(Oc2cnc3ccccc3n2)cc1 | -9.7 | -5.4 | 3.4 | 41.7 | · | 7.0 | -6.2 | i
Cc1cccc(NC(=O)c2cccnc2Cl)n1 | 0.0 | -0.2 | -6.7 | · | 7.7 | -2.2 | 10.6 | i
COC(=O)COn1c(-n2nc(C)cc2C)nc2ccccc2c1=O | 4.4 | 9.6 | -6.2 | -39.9 | -5.9 | 8.0 | -2.2 | i
NS(=O)(=O)c1ccc(NC(=O)COC(=O)c2cnccn2)cc1 | -1.8 | 0.4 | 9.9 | -4.0 | -15.6 | 8.1 | -3.3 | i
CCOc1ccc(C(=O)NC(Cc2ccccc2)C(=O)OC)cc1 (stereo unspecified) | 0.1 | 1.0 | -12.4 | -117.2 | -19.7 | 3.2 | -6.8 | i
COc1cc(OC)cc(C2C(C#N)=C(N)Oc3n[nH]c(-c4cccnc4)c32)c1 (stereo unspecified) | 0.8 | -3.2 | -14.0 | · | -13.1 | 0.4 | -0.4 | i
COc1ccc(CNC(=O)COC(=O)c2ccc3ncsc3c2)cc1OC | -5.6 | -0.7 | · | 3.0 | -0.5 | · | -8.7 | ·
Cc1cc(C)nc(NC2=NCC(=O)N2c2ccccc2)n1 | 3.1 | 2.5 | -2.7 | 0.1 | -29.8 | 4.6 | -11.3 | i
COc1ccc(NC(=O)C2CCC2)cc1S(=O)(=O)Nc1cc(C)ccc1Br | 2.0 | -5.5 | · | -23.1 | 7.5 | · | · | ·
CCC(C)(C)n1nnnc1C(c1cc(OC)c(OC)c(OC)c1)N1CCN(c2ccccc2)CC1 (stereo unspecified) | -4.5 | -4.5 | -5.6 | · | -31.5 | -9.6 | 5.1 | i
CN(C(=O)COC(=O)Cc1ccccc1[N+](=O)[O-])C1CCS(=O)(=O)C1 (stereo unspecified) | 0.7 | 5.8 | · | · | -10.6 | · | -16.1 | ·
COc1cc2c(cc1OC)C(C(=O)Nc1cccc(C)n1)C(c1cccnc1)N(C)C2=O (stereo unspecified) | 5.0 | 5.9 | -7.9 | -47.6 | · | -4.0 | 11.5 | ·
COc1ccc(NC(=O)Cc2coc3cc(C)ccc23)cn1 | 2.8 | 1.7 | 3.2 | -4.7 | · | 1.6 | -2.7 | i
CCC(C)c1ccc(NC(=O)Nc2cnccn2)cc1 (stereo unspecified) | 1.3 | -18.7 | -6.3 | -76.0 | -16.2 | 13.1 | 6.5 | i
CCOC(=O)c1sc(NC(=O)CSc2ncccn2)nc1C | 0.9 | -3.6 | -7.7 | -58.9 | -20.9 | 7.2 | 5.9 | i
Cc1ccc(-n2nnnc2SCC(=O)NCC2(N3CCOCC3)CCCCC2)c(C)c1 | -0.2 | -5.1 | · | 33.7 | -9.8 | · | · | ·
S=C(Nc1ccc(N2CCOCC2)cc1)Nc1ccc2snnc2c1 | 9.4 | 6.2 | -6.2 | 6.5 | · | -0.1 | -9.6 | i
COc1cc(C(=S)N2CCOCC2)cc(OC)c1OS(=O)(=O)c1ccc(Cl)cc1 | 1.3 | -3.2 | -15.9 | -6.0 | -10.8 | -5.2 | -5.5 | i

For reference, some entries already given:
SMILES | MT1-MMP act inh | MT1-MMP act inh RFP | eIF4H inh | HIV Env fusion | Yeast UUG start | PABP polyA inh | CSC inhib | Rce1 inhib
CCN1CCN(S(=O)(=O)c2ccc3c(c2)NC(=O)CS3)CC1 | -1.3 | 1.8 | -1.5 | 1.1 | -21.9 | 12.6 | -4.9 | i
COc1cc(OC)cc(C(=O)N[C@H](C(=O)Nc2nc(-c3cc(OC)ccc3OC)cs2)C(C)C)c1 | -52.9 | -41.0 | -7.6 | -8.8 | · | -7.3 | 0.0 | i
O=C(Nc1nc2ccc(F)cc2s1)c1ccccn1 | · | · | 13.3 | 40.2 | · | 1.6 | -6.3 | i
CN(C)S(=O)(=O)c1ccc(N2CCCC2)c(C(=O)Nc2nc(-c3ccc(F)c(F)c3)cs2)c1 | -1.1 | 1.4 | -9.2 | -5.2 | · | -3.0 | -1.3 | i

Going on with the list.
SMILES | MT1-MMP act inh | MT1-MMP act inh RFP | eIF4H inh | HIV Env fusion | Yeast UUG start | PABP polyA inh | CSC inhib | Rce1 inhib
CCCNC(=O)C1(C)CCN(C(=O)c2cccc(Cl)c2)C1 (stereo unspecified) | 2.1 | 6.4 | · | -6.9 | -17.4 | · | · | ·
O=C(NCc1cccnc1)C1CCCN(S(=O)(=O)c2ccc(Br)cc2)C1 (stereo unspecified) | 13.4 | -1.0 | -4.7 | · | -1.3 | -6.3 | -11.4 | i
Cc1cccc(NCCC(=O)c2ccc([N+](=O)[O-])cc2)c1C | -0.2 | -2.2 | 0.4 | 22.3 | -4.9 | 2.6 | 27.7 | i
Cc1ccc(-c2cnn(-c3ccccc3)c2N)cc1 | 1.9 | 2.7 | 1.0 | -158.3 | -46.9 | 12.9 | 17.4 | i
CCOc1ccc(N(CC(=O)NC2CCCCC2)C(=O)CCC(=O)Nc2cc(C)ccn2)cc1 | -2.2 | -1.9 | -6.2 | -6.3 | -7.8 | -5.3 | -45.5 | i
O=C1C=C(c2cccc(CO)c2)C[C@@H](c2ccc3c(c2)OCO3)C1 | 4.9 | -1.8 | · | 18.4 | -10.0 | · | 1.9 | ·
O=C(c1ccncc1)c1ccc([N+](=O)[O-])cc1 | -0.4 | 5.1 | -11.4 | -13.1 | -12.6 | -3.9 | -9.1 | i
COc1ccc(OC)c2sc(Cl)nc12 | 1.5 | 3.7 | 1.5 | 5.5 | · | 1.2 | -9.8 | i
Cc1ccc(OCC(O)Cn2c(NCCc3ccccc3)nc3c2c(=O)[nH]c(=O)n3C)cc1 (stereo unspecified) | -5.7 | 2.6 | -5.4 | · | -3.8 | -7.3 | -13.1 | i
O=C(CN1CCOCC1)Nc1ccccc1C(=O)O | 3.2 | 4.6 | -4.4 | -20.7 | -2.4 | -5.8 | 11.3 | i
CCC(CC)C(=O)NCCCN1CCOCC1 | 3.2 | 4.9 | -0.1 | -3.5 | · | 5.9 | -12.8 | i
S=C(NCCc1ccccc1)NCC(c1ccco1)N1CCCCC1 (stereo unspecified) | -6.9 | -4.2 | -4.1 | 12.4 | · | -9.0 | 20.9 | i
CCOC(=O)CC(=O)CSc1ncnc2c1nnn2-c1ccccc1 | -0.5 | 5.8 | -1.6 | -10.9 | -27.6 | 12.3 | 13.8 | i
O=C(CCCc1nc2ccccc2s1)NCc1ccc(F)cc1 | 4.9 | 6.7 | -3.4 | -10.9 | · | -16.2 | -1.8 | i
COc1ccc(CN2C(=O)c3ccccc3C2=O)cc1C(=O)N(C)CC(=O)Nc1ccc(F)cc1 | -1.0 | 3.9 | · | · | -4.2 | · | -13.4 | ·

The order is random; any-hit rate near 2.9%.
